Compound activity as filed in PubChem.
ClpP mod: qHTS Assay for Activators of ClpP. 340,000 compounds, 1.9% hits. purified B. subtilis ClpP, FRET peptide cleavage, 20 min. ATP-dependent Clp protease proteolytic subunit (Bacillus subtilis (strain 168)), P80244. Potency, µM (highest dose often 57.5 µM), for the others: at the top dose activity change, negative = active; active = well fitted falling curve with a large enough effect; inconclusive = small, poorly fitted or top-dose-only effect; inactive = no such curve, though single readings can be large or run the other way; note: potency is the fitted concentration of half-maximal effect; the source files actives as falling curves though it sought activators and does not explain the sign; nearly all actives have a fitted effect of over 65% in size; many hits overshoot -100%
Target sequence (P80244 whole entry, looked up): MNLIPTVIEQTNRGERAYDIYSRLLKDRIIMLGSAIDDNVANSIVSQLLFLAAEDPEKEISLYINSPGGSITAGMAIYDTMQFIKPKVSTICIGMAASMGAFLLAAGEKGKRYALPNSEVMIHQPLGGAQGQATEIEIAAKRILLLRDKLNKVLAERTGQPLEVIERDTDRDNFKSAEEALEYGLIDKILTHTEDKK
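FRET quenching reversal measured ClpP activation: 10 microg/mL B. subtilis ClpP at pH 8 with the FRET-FV decapeptide, read at 430 nm after 320 nm excitation. The 20-min minus 0-min signal was scaled between DMSO/no-enzyme wells and ADEP (5.8 microM final).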
gsp ag: activates gsp, the McCune-Albright syndrome mutation; 340,000 compounds, 0.13% hits; Potency, µM (titrated, usually from 76.9 µM), inactives show top-dose activation (cAMP increase), most hits filed as activators; gsp mutant cells, cAMP HTRF, 30 min; control for the full effect not named in the record; active = well fitted activation curve with a large enough effect; inconclusive = small, poorly fitted or top-dose-only effect, or another doubt; inactive = no such curve, though single readings can be large or run the other way; cell line not stated here;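 note: phosphodiesterase inhibitor Ro 20-1724 added with compounds to block cAMP breakdown; potency is the fitted concentration of half-maximal effect; nearly all actives have a fitted effect of over 60% in size; about a fifth of the inactives were tested at one dose only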
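Cells in DMEM/10% FBS with G418 were pretreated with compounds in DMSO plus […] (300 uM stock) for 30 min at 37C. cAMP was measured by HTRF (cAMP-d2 plus anti-cAMP antibody-K) after 30 min at room temperature.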
D2 PAM: potentiates the human D2 dopamine receptor allosterically; P14416; DiscoveRx D2 beta-arrestin cells, luminescence, 90 min; 100% = 57 uM dopamine signal; potentiation, % (no concentration beside the values); 360,000 compounds, 0.23% hits; AID 624464; active = potentiation of 50% or more; inconclusive = 30% to 50%; inactive = 30% or less;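 note: compound concentration not given in the record; tested on top of an EC20 dose of dopamine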
Target sequence (P14416 whole entry, looked up): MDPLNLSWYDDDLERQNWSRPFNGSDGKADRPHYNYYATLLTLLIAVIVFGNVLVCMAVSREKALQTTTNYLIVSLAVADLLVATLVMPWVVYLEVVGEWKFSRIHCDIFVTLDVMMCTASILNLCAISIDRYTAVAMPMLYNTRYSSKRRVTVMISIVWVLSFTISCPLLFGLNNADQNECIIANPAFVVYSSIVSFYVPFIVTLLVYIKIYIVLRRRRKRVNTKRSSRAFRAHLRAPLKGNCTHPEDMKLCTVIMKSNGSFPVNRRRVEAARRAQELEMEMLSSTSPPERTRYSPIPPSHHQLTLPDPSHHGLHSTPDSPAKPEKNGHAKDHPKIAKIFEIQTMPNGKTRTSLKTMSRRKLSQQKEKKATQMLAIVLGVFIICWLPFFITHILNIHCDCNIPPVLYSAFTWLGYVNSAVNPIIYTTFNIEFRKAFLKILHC
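PathHunter beta-arrestin assay in DiscoveRx D2 cells. Compounds were added with an EC20 of dopamine (50 nM final) for 90 min at 37 deg C. Luminescence was read 1 h after detection reagent, with 57 uM dopamine as the EC100 control.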
Menin MLL FP FL: inhibitors of human menin-MLL interaction, wild-type MLL peptide; Fluorescence polarization, fluorescein-MLL peptide displacement from menin; FP activity change, % at 61.4 µM; 290,000 tested, under 10 active; inconclusive = falling polarisation curve, or a change in total fluorescence; inactive = total fluorescence flat and polarisation flat or rising; no compound was filed as active; the % refers to the polarisation; negative = inhibition;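 note: % of control where 0% means no effect; inhibitors lower the polarisation; unlabelled MLL peptide was the positive control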
Sfp inh: Sfp phosphopantetheinyl transferase inhibition; Biochemical Sfp PPTase activity, qHTS; Potency, µM, without a hit: max response, negative = inhibition, usual class: inhibitors; Q9F4F7; 310,000 compounds, 3.5% hits; AID 1490; active = well fitted inhibition curve with a large enough effect; inconclusive = small, poorly fitted or top-dose-only effect, or another doubt; inactive = no such curve, though single readings can be large or run the other way;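 note: the enzyme is Sfp with the accession as filed and its product quenches rhodamine fluorescence; potency is the fitted concentration of half-maximal effect; 0% = enzyme reaction without inhibitor and -100% = no enzyme wells; top concentration of the series not given in the record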
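Step 1, compound plus 15 nM Sfp-PPTase, 15 min, room temperature. Step 2, add rhodamine-CoA (5 uM) and BHQ-2-YbbR (12.5 uM). Step 3, read 525/598 nm fluorescence at 0 and 30 min.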
TRPV1 potentiator: potentiators of human vanilloid receptor 1 (TRPV1) | potentiation, % at 8.33 µM | AID 540277 | TRPV1-expressing cells, Fluo-8 calcium influx, capsaicin EC20 potentiation; host cell line not named in the record; control for the full effect not named in the record | Q8NER1 | 320,000 compounds, 0.02% hits; active means potentiation above 80%; inconclusive means 30% to 80%; inactive means below 30%; note: 0% is about no effect
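Cells expressing TRPV1 were dye-loaded with Fluo-8 and read kinetically: 10 s baseline, 3 min after compound (agonist portion), then 2 min after EC20 capsaicin (allosteric enhancer portion). Calcium-bound dye fluorescence at 480/520 nm.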
gsp antagonist: antagonizes gsp, the McCune-Albright syndrome mutation; gsp-mutant cells, cAMP HTRF, 30 min; control for the full effect not named in the record; Potency, µM (doses to about 76.9 µM), for inactives: top-dose activity change, negative = inhibition, hits mostly inhibitors; 340,000 compounds, 0.4% hits; AID 624288; active = falling curve of any shape with a large fitted effect; inconclusive = falling curve, mostly with a smaller effect; inactive = flat or rising curve; cell line not stated here;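 note: intracellular cAMP measured with PDE inhibitor Ro 20-1724 present during compound exposure; potency is the fitted concentration of half-maximal effect; % is set by controls: 0 for no effect and ±100 for the full control effect; nearly all actives have a fitted effect of over 65% in size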
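HTRF cAMP read-out (cAMP-d2 plus anti-cAMP antibody-K in lysis buffer, 30 min RT). Before lysis, cells are exposed to compounds with […] for 30 min at 37C in DPBS containing Ca/Mg, BSA and Tween 20.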
* = called active by the depositor; & = joins results of further samples; [ ] = another dose, or the depositor's remark.

Screening Cc1cc(C)nc(-n2nc(C)c(C3(O)C(=O)Nc4ccccc43)c2N)n1 (stereo unspecified) returned ClpP mod -2.1%, gsp ag -7%, D2 PAM -12, Menin MLL FP FL -1.4, Sfp inh 2%, TRPV1 potentiator -4 and gsp antagonist 10%.
`CCOC(=O)c1c(N)sc(C(=O)OC)c1C` gave ClpP mod -2.6%, gsp ag -49%[inhibitor], D2 PAM -7, Menin MLL FP FL 4.2, Sfp inh 56µM*, TRPV1 potentiator 1 and gsp antagonist -6%.
Screening Cc1noc(C)c1NC(=O)N(C)C[C@H]1OCc2cnnn2CCCC(=O)N([C@H](C)CO)C[C@@H]1C returned ClpP mod 0.2%, gsp ag -14% and D2 PAM 2.
For CC1=CC2=NC(=O)/C(=C\c3cccn3CCOc3ccc(C)c(C)c3)C(=N)N2O1 the results were ClpP mod -0.7%, gsp ag -4%[15.4 µM], D2 PAM -6, Menin MLL FP FL -2.1, Sfp inh inconclusive, TRPV1 potentiator 0 and gsp antagonist -20%.
`COCc1cc(=O)[nH]c(Nc2nc(C)c3ccccc3n2)n1` gave ClpP mod 0.8%, gsp ag 42%, D2 PAM -15, Menin MLL FP FL 2.9, Sfp inh 18%, TRPV1 potentiator 0 and gsp antagonist 1%.
Screening Cc1ccc(C(=O)NCC(=O)N2CCC3(CC2)NCCc2[nH]cnc23)cc1C returned ClpP mod 0.0%, gsp ag inconclusive, D2 PAM -10, Sfp inh 5%, TRPV1 potentiator 0 and gsp antagonist 12%.
For Cc1nc2ccccc2c(=O)n1NC(=O)C1CCCCC1 the results were ClpP mod -1.2%, gsp ag -8%, D2 PAM -8, Menin MLL FP FL 2.5, Sfp inh 19%, TRPV1 potentiator -11 and gsp antagonist 0%.
For COc1ccc(/C=N/n2cnnc2)cc1Cn1nc(C)c([N+](=O)[O-])c1C the results were ClpP mod 0.7%, gsp ag 19%, D2 PAM 4, Menin MLL FP FL 4.3, Sfp inh 4%, TRPV1 potentiator -3 and gsp antagonist -19%.
Screening Cc1ccccc1Nc1nc(N)nc(CSc2n[nH]c(N)n2)n1 returned gsp ag 0%[15.4 µM], D2 PAM 1, Menin MLL FP FL -1.1, Sfp inh 1%, TRPV1 potentiator 0 and gsp antagonist 7%.
COc1ccc2c(c1)cc(C(=O)N[C@H](C(=O)N1CCC(C(=O)O)CC1)C(C)C)n2C was read as ClpP mod 2.9%, gsp ag inconclusive, D2 PAM -2, Menin MLL FP FL -1.9, Sfp inh 2%, TRPV1 potentiator -1 and gsp antagonist -9%.
For CCn1cc([N+](=O)[O-])c(C(=O)N2N=C(c3ccc4ccccc4c3)CC2c2cc(Br)ccc2O)n1 (stereo unspecified) the results were ClpP mod -0.7%, gsp ag 0%, D2 PAM 23, Menin MLL FP FL -3.0, Sfp inh 11%, TRPV1 potentiator 15 and gsp antagonist -16%.
Screening CCc1ccc(NC(=O)CCCN2C(=O)C3CC=CCC3C2=O)cc1 (stereo unspecified) returned ClpP mod -5.1%, gsp ag -6%[15.4 µM], D2 PAM -27, Sfp inh 8%, TRPV1 potentiator -22 and gsp antagonist -4%.
`CC1CCCCN1CCCNC(=O)c1cc(Br)c(Br)[nH]1` (stereo unspecified) gave gsp ag -5%, D2 PAM -8, Menin MLL FP FL -3.3, Sfp inh 20%, TRPV1 potentiator 1 and gsp antagonist 5%.
For Cc1ccc(-c2nnn(CC(=O)N(Cc3ccco3)C(C(=O)NC3CCCC3)c3cccs3)n2)o1 (stereo unspecified) the results were ClpP mod -1.1%, gsp ag 11%, D2 PAM -17, Menin MLL FP FL 4.3, Sfp inh 7%, TRPV1 potentiator 8 and gsp antagonist 5%.
`CCOC(=O)N1CCN(C(=O)COc2cccc3c2CCN(Cc2ccccc2F)C3=O)CC1` gave ClpP mod -2.6%, gsp ag inconclusive, D2 PAM -5, Menin MLL FP FL 6.5, Sfp inh -1%, TRPV1 potentiator 2 and gsp antagonist -8%.
`COc1ccccc1NC(=O)CCc1nnc2ccc(N3CCN(C)CC3)nn12` gave ClpP mod 0.3%, gsp ag inconclusive, D2 PAM -9, Sfp inh 17%, TRPV1 potentiator 4 and gsp antagonist 12%.
For CCN(CC)C(=O)CSc1nnc(-c2ccccc2)o1 the results were ClpP mod 0.1%, gsp ag -43%[inhibitor], D2 PAM 2, Menin MLL FP FL 3.2, Sfp inh 20%, TRPV1 potentiator 0 and gsp antagonist -9%.
COc1ccc(-n2c(C)nc3cc(C(=O)NCc4ccc5c(c4)OCO5)ccc32)cc1 was read as ClpP mod -0.4%, gsp ag -2%, D2 PAM -17, Menin MLL FP FL 0.3, Sfp inh -14%, TRPV1 potentiator -11 and gsp antagonist 1%.
`CCSc1nnc(NC(=O)CSc2nnc(CNC(=O)c3ccccc3F)o2)s1` gave ClpP mod 1.6%, gsp ag -26%, D2 PAM -10, Menin MLL FP FL 17, Sfp inh inconclusive, TRPV1 potentiator -14 and gsp antagonist 2%.
Cc1ccc(-c2noc(CCC(=O)NC3CCN(Cc4ccccc4)CC3)n2)cc1 was read as ClpP mod -1.5%, gsp ag 6%, D2 PAM -13, Menin MLL FP FL 7.9, Sfp inh -1%, TRPV1 potentiator 19 and gsp antagonist 9%.
`C/C=C(/C(=C/C)c1ccc(O)cc1)c1ccc(O)cc1` gave ClpP mod 2.0%, D2 PAM 17, Menin MLL FP FL -0.5&0.5, Sfp inh 17%&-13%, TRPV1 potentiator 8 and gsp antagonist 1%.
For Cc1cc(C)c2nc(C(F)(F)F)c(C#N)c(N)c2c1 the results were ClpP mod -0.8%, gsp ag 19%, D2 PAM 13, Menin MLL FP FL -0.7, Sfp inh 5%, TRPV1 potentiator 11 and gsp antagonist 4%.
Screening CCN(CC)CC(O)CCCCCCCCC(=O)OC (stereo unspecified) returned ClpP mod 1.4%, gsp ag -1%[15.4 µM], D2 PAM -1, Menin MLL FP FL 3.7, Sfp inh 8%, TRPV1 potentiator -11 and gsp antagonist 8%.
`COc1cc2ccccc2cc1C(=O)O` gave ClpP mod inconclusive, gsp ag 12%, D2 PAM 2, Menin MLL FP FL 1.8, Sfp inh 18%, TRPV1 potentiator -4 and gsp antagonist 4%.
Cc1ccc(NC(=O)COC(=O)C2C3CC4OC(=O)C2C4C3)cc1 (stereo unspecified) was read as gsp ag 14%, D2 PAM -7, Sfp inh 6%, TRPV1 potentiator 6 and gsp antagonist 9%.
`COc1ccc(C(=O)N(Cc2ccccc2)Cc2cc3cc4c(cc3[nH]c2=O)OCCO4)cc1` gave ClpP mod inconclusive, gsp ag -21%, D2 PAM -9, Menin MLL FP FL 1.8, Sfp inh -8%, TRPV1 potentiator 1 and gsp antagonist 4%.
`COc1ccc(NC(=O)CN(C)CC(=O)Nc2ccccc2SC)cc1Cl` gave ClpP mod -2.2%, gsp ag 5%, D2 PAM -12, Menin MLL FP FL 4.7, Sfp inh inconclusive, TRPV1 potentiator -18 and gsp antagonist -17%.
CCOC(=O)c1sc(NC(C)=O)cc1C was read as ClpP mod -6.6%, gsp ag -75%[inhibitor], D2 PAM -6, Menin MLL FP FL 1.8, Sfp inh 13%, TRPV1 potentiator 3 and gsp antagonist 2%.
`CCC(=O)N(Cc1cc2cc(OC)ccc2[nH]c1=O)c1ccc(C)cc1C` gave ClpP mod inconclusive, gsp ag -7%, D2 PAM -6, Menin MLL FP FL 3.3, Sfp inh -13%, TRPV1 potentiator -16 and gsp antagonist -1%.
For N#CC(C(=O)OCc1ccccc1)c1nc2ccccc2nc1N1CCOCC1 (stereo unspecified) the results were ClpP mod -2.3%, gsp ag -2%, D2 PAM -5, Menin MLL FP FL inconclusive, Sfp inh 0%, TRPV1 potentiator 18 and gsp antagonist -10%.
Screening COc1ccc(NC(=O)C(C)N2c3cccc4cccc(c34)S2(=O)=O)c(OC)c1 (stereo unspecified) returned gsp ag -5%[15.4 µM], D2 PAM -3, Sfp inh 8%, TRPV1 potentiator 2 and gsp antagonist -11%.
`CCC1(c2ccc(F)cc2)NC(=O)N(CC(=O)Nc2cccc(S(=O)(=O)N3CCCCC3)c2)C1=O` (stereo unspecified) gave ClpP mod -1.7%, gsp ag inconclusive, D2 PAM 1, TRPV1 potentiator -3 and gsp antagonist 2%.
Screening Cc1nc2nc[nH]n2c(=O)c1CCOC(=O)c1ccccc1F returned gsp ag 3%, D2 PAM 1, Menin MLL FP FL -1.7, Sfp inh 19%, TRPV1 potentiator 0 and gsp antagonist 0%.
CC(/C=C1\N=C(SCc2ccccc2Cl)SC1=O)=C\c1ccccc1 was read as ClpP mod -0.4%, gsp ag 5%, D2 PAM 2, Menin MLL FP FL 4.9, Sfp inh -4%, TRPV1 potentiator 1 and gsp antagonist 2%.
`COc1ccccc1NC(=O)CC(=O)Nc1ccccc1OC` gave gsp ag 15%, D2 PAM -1, Menin MLL FP FL -1.3, Sfp inh 6%, TRPV1 potentiator 17 and gsp antagonist 5%.
`CCN(CC(=O)NCc1ccc(Cl)cc1)C(=O)CSc1ccccc1F` gave ClpP mod 1.5%, gsp ag 0%[15.4 µM], D2 PAM -6, TRPV1 potentiator -7 and gsp antagonist -25%.
For O=C(NC1CCCc2ccccc21)C(Cc1ccccc1)NS(=O)(=O)c1cccs1 (stereo unspecified) the results were ClpP mod -4.2%, gsp ag -16%, D2 PAM 5, Menin MLL FP FL 4.0, Sfp inh 0%, TRPV1 potentiator 2 and gsp antagonist -3%.
COc1ccc2oc(=O)c(C(=O)NCc3ccc4c(c3)OCO4)cc2c1 was read as ClpP mod 2.8%, gsp ag -1%, D2 PAM -14, Menin MLL FP FL 2.1, Sfp inh -24%, TRPV1 potentiator -2 and gsp antagonist 0%.
Screening CCCS(=O)(=O)N1CCCC(c2nc(-c3cccc(OC)c3)no2)C1 (stereo unspecified) returned ClpP mod -2.8%, gsp ag -39%[inhibitor], D2 PAM -6, Menin MLL FP FL 1.5, Sfp inh -7%, TRPV1 potentiator -32 and gsp antagonist -25%.
